Screens (PubChem BioAssay)
HPGD inh: HPGD (human) dehydrogenase inhibition; P15428; purified HPGD, NADH fluorescence kinetic, PGE2 substrate; Potency, µM, for the others: at the highest dose activity change, negative = inhibition, most hits filed as inhibitors; actives 4.3% (n = 150,000); AID 894; active = well fitted inhibition curve with a large enough effect (not every such curve was filed as active); inconclusive = small, poorly fitted or top-dose-only effect, or another doubt; inactive = no such curve, though single readings can be large or run the other way;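 further: top concentration of the series not given in the record; plate controls included wells without enzyme; inactives centre near -10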
Target sequence (P15428 whole entry, looked up): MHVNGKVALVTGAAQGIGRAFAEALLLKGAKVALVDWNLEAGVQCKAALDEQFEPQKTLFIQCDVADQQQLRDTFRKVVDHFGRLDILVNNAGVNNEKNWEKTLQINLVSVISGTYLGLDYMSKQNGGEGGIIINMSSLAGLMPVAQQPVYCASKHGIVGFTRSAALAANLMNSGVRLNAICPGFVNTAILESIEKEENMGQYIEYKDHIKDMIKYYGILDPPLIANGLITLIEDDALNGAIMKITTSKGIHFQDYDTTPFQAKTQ
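NADH formation kinetics: reaction with 30 uM PGE2 and 1 mM NAD+ (final), 20 nM enzyme, Tris-HCl pH 8 with Tween 20, after 15 min compound preincubation at room temperature. Fluorescence change, last versus first of five reads.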
Active calls of the source: *; & = joins results of further samples. On the % scale 0 is the no-effect control and ±100 the full control effect; potency means the concentration at half of the fitted maximal effect. An excerpt, so the mix of outcomes need not match the whole.

For CCC(=O)N1CCN=C1SCc1ccc(Cl)cc1 the results were HPGD inh -6.7%.
Screening CC(NC(=O)c1cc(-c2ccc3c(c2)OCO3)nc2ccccc12)C(C)(C)C (stereo not given) returned HPGD inh inconclusive.
O=C1OC(c2ccccc2)/C(=C(/O)c2ccccc2)C1=O (stereo not given) was read as HPGD inh -18.2%.
O=C(N/N=C/C1CC=CCC1)c1cc(Br)ccc1O (stereo not given) was read as HPGD inh -22.5%.
`O=C(CSc1nc2ccc([N+](=O)[O-])cc2[nH]1)NC1CCCC1` gave HPGD inh -14.5%.
Screening CCc1ccccc1NC(=S)N=Nc1c(O)n(C)c2ccc(S(=O)(=O)N3CCOCC3)cc12 returned HPGD inh -26.3%.
Screening Cc1ccc(S(=O)(=O)NC(=O)NN2CCCCCC2)cc1 returned HPGD inh -4.5%&-16.1%&-5.1%&3.3%.
Screening CCOc1ccc(NC(=S)N/N=C(\C)Cc2ccc(OC)cc2)cc1 returned HPGD inh inconclusive.
`O=C(Nc1nc(-c2ccccn2)cs1)C1CC(=O)N(c2ccc3c(c2)OCCO3)C1` (stereo not given) gave HPGD inh -9.3%.
Screening CC(=O)c1cc2c(cc1NC(=O)c1ccc(C)cc1)OCO2 returned HPGD inh inconclusive.
CCc1nc2c(c(=O)[nH]1)C1(CCCC1)Cc1ccccc1-2 was read as HPGD inh -14.3%.
CCCCC1NC(=S)N(C2CCCCC2)C1=O (stereo not given) was read as HPGD inh -17.4%.
`Cc1ccc(Oc2ncccc2/C=N/O)cc1` gave HPGD inh -5.6%.
Screening N#CC1=C(S)N=C(N)C(c2nc(-c3ccccc3)cs2)C12CCCC2 (stereo not given) returned HPGD inh inconclusive.
`O=C(/C=C/Nc1ccc(F)cc1Br)c1ccccc1` gave HPGD inh -8.0%.
For COC(=O)[C@@]1(Cc2ccc(OC)cc2)[C@@H]2[C@@H](CC(=O)[C@H]2CC(=O)C(=O)N2CCCC2)CN1C(=O)c1ccccc1 the results were HPGD inh -7.5%.
For O=C(NCC1COc2ccccc2O1)C1CCCN(S(=O)(=O)c2cccc3nsnc23)C1 (stereo not given) the results were HPGD inh -18.9%.
COc1ccc(NC(=S)NNC(=O)C(C)n2nc(C)c([N+](=O)[O-])c2C)cc1 (stereo not given) was read as HPGD inh -11.2%.
`COc1ccc(C2CC(c3ccccc3)Nc3nc(NC(=O)c4cccs4)nn32)cc1` (stereo not given) gave HPGD inh -13.2%.
`O=C(Cn1cnc2c(nnn2-c2ccccc2)c1=O)NCC1CCCO1` (stereo not given) gave HPGD inh -15.1%.
`CCN(CC)S(=O)(=O)c1ccc(C(=O)NC2=C(C(=O)OC)SCC2)cc1` gave HPGD inh -15.0%.
CNc1nc(Sc2ccc(C)cc2)cc(C(F)(F)F)n1 was read as HPGD inh inconclusive.
Screening COc1ccc(C2CC(=O)c3c([nH]c(C(=O)OC(C)C)c3C)C2)cc1OC (stereo not given) returned HPGD inh -15.6%.
`COc1ccc(-c2noc(-c3ccccc3C(=O)Nc3cccc(OC)c3)n2)cc1` gave HPGD inh -17.4%.
`Cc1ccc(/C=N/NC(=O)CSc2nc3ccccc3s2)o1` gave HPGD inh 14.1µM*.
`Clc1ccc(C2[C@H]3CN(Cc4ccc(-c5ccccc5)cc4)[C@H](c4ccccc4)C34CC2(c2ccccc2)C4)cn1` (stereo not given in full) gave HPGD inh -4.4%.
`Cc1nc2c(C)cccc2cc1C(=O)N/N=C/c1ccc(N(C)C)cc1` gave HPGD inh -18.0%.
Screening CN1CC=C2C(C#N)=C(N)C(C#N)(C#N)[C@H](c3cccc(Cl)c3)C2C1 (stereo not given in full) returned HPGD inh inconclusive.
COc1ccc(CN2CN(C(C)C)CSC2=S)cc1 was read as HPGD inh -10.3%.
`O=C(N/N=C/C1CC=CCC1)c1cc2ccccc2cc1O` (stereo not given) gave HPGD inh -13.6%.
Screening CSCCC(C(=O)NC1=NCCS1)N1C(=O)c2ccccc2C1=O (stereo not given) returned HPGD inh -11.5%.
Screening Cc1occc1C(=O)Nc1ccc2c(c1)CCC2 returned HPGD inh -17.7%.
`O=C(O)C[C@@H](C(=O)O)C1c2ccccc2-c2ccccc21` gave HPGD inh -9.1%.
Screening Clc1ccc(OCCCN2CCCC2)cc1Cl returned HPGD inh -7.0%.
`Cc1cc(C)n2nc(Cc3ccccc3)nc2n1` gave HPGD inh -3.1%.
`Cc1ccc(S(=O)(=O)N2c3ccc(S(N)(=O)=O)cc3CC2C)cc1` (stereo not given) gave HPGD inh -5.9%.
Screening Cc1ccc(SCc2nc(-c3ccncc3)no2)cc1 returned HPGD inh 0.3%.
For CC(=O)N1CCN(C(=O)CCc2nc3ccccc3c(=O)[nH]2)CC1 the results were HPGD inh -9.3%.
`CCOc1c(OC)cccc1C1CC(=O)Nc2cc3c(cc21)OCCO3` (stereo not given) gave HPGD inh -5.8%.
Screening CC1=NN(c2ccccc2)C(=O)/C1=C\c1cn(CCC#N)nc1-c1ccc(Cl)cc1 returned HPGD inh -17.1%.
`COc1ccc(CN(Cc2ccncc2)C(=O)CCC(=O)O)cc1` gave HPGD inh -13.1%.
`O=C1CCCN1CN(C(=O)c1ccc2c(c1)OCO2)c1ccc(F)cc1` gave HPGD inh -13.8%.
Screening CCOCCCNC(=O)C1c2ccccc2C(=O)N2CCc3ccccc3C12 (stereo not given) returned HPGD inh -11.9%.
For CCOCCCNC(=O)C(c1ccc(C)cc1)N(Cc1cccs1)C(=O)CNC(C)=O (stereo not given) the results were HPGD inh -5.1%.
CCSc1nnc(NC(=O)C(CC)(C(F)(F)F)C(F)(F)F)s1 was read as HPGD inh -13.8%.
COc1ccc(NC(=O)C(Sc2nnc(-c3ccncc3)n2-c2ccccc2C)c2ccccc2)cc1Cl (stereo not given) was read as HPGD inh -10.7%.
Cc1cc(-c2ccccc2)nc(Cl)c1C#N was read as HPGD inh 0.5%.
For CC1(C)NC(=O)N(CCSc2ccc(Cl)cc2)C1=O the results were HPGD inh -16.6%.
Cn1c(O)c(C=NCC2CCNCC2)c(=O)n(C)c1=O was read as HPGD inh -7.6%.
For c1cncc(CNc2ncncc2-c2ccc3c(c2)OCO3)c1 the results were HPGD inh inconclusive.
CCOc1cccc(Oc2ncccc2C(=O)/C(C#N)=C/N(C)C)c1 was read as HPGD inh -10.0%.
Cc1ccc(C)c(Cn2c(C(C)O)nc3ccccc32)c1 (stereo not given) was read as HPGD inh -8.4%.
O=C(N/N=C\c1cccc(O)c1)c1ccncc1 was read as HPGD inh -7.6%.
COc1ccc(Cc2nnn(CC(=O)O)n2)cc1 was read as HPGD inh -11.4%.
For O=C(/C=C(/c1ccc(Cl)cc1)n1cncn1)c1ccccc1 the results were HPGD inh -23.5%.
For O=C(Cn1nc(-c2ccccc2)nc1-c1ccccc1)OC1CCCCC1 the results were HPGD inh -16.3%.
For COc1ccc2[nH]cc(CCNc3cc(-c4ccoc4)ncn3)c2c1 the results were HPGD inh -8.9%.
For CCSCCOC(=O)C1=C(C)NC(=O)NC1c1ccccc1 (stereo not given) the results were HPGD inh -2.0%.
`COc1ccc(NC(=O)C2CCN(Cc3cnn(-c4ccccc4)c3-n3cccc3)CC2)cc1OC` gave HPGD inh -6.6%.
For Clc1ccc(SCCCCN2CCOCC2)cc1 the results were HPGD inh -2.7%.

Five compounds from above, arranged by molecular weight, lowest first:
O=C(N/N=C\c1cccc(O)c1)c1ccncc1 was read as HPGD inh -7.6%.
For CCSCCOC(=O)C1=C(C)NC(=O)NC1c1ccccc1 (stereo not given) the results were HPGD inh -2.0%.
For COc1ccc2[nH]cc(CCNc3cc(-c4ccoc4)ncn3)c2c1 the results were HPGD inh -8.9%.
`COc1ccc(NC(=O)C2CCN(Cc3cnn(-c4ccccc4)c3-n3cccc3)CC2)cc1OC` gave HPGD inh -6.6%.
COc1ccc(NC(=O)C(Sc2nnc(-c3ccncc3)n2-c2ccccc2C)c2ccccc2)cc1Cl (stereo not given) was read as HPGD inh -10.7%.

(further entries)
For O=C(CSc1nn(-c2ccc(F)cc2)c(=S)s1)NC(=O)NCc1ccco1 the results were HPGD inh -20.9%.
For COC(=O)c1ccc(OC)c(-c2c(OC)cc(OC)cc2OC)c1 the results were HPGD inh -9.8%.
For COc1cc(NC(=O)COC(=O)/C=C/c2c(C)nn(C3CCS(=O)(=O)C3)c2Cl)cc(OC)c1OC (stereo not given) the results were HPGD inh -15.1%.
`COc1ccc(C)cc1S(=O)(=O)N1CCC(C(=O)N2CCN(C)CC2)CC1` gave HPGD inh -10.3%.
Cc1cnc(NC(=O)C2C(=O)c3ccccc3S(=O)(=O)N2C)s1 (stereo not given) was read as HPGD inh -29.0%.
Screening O=C(CN1C(=O)COc2ccccc21)N(CCCN1CCOCC1)CC1CC=CCC1 (stereo not given) returned HPGD inh -5.8%.
Screening c1ccc2[nH]c(N3CCOCC3)nc2c1 returned HPGD inh -17.6%.
For Cc1csc(NC(=O)c2ccc(C)c([N+](=O)[O-])c2)n1 the results were HPGD inh 28.2µM*.
COc1ccc2c(=O)c(C(=O)O)c(-c3ccc4c(c3)OCO4)n(C)c2c1 was read as HPGD inh inconclusive.
Screening C#CCNc1nc(C(C)C)nc2c1nnn2Cc1ccccc1F returned HPGD inh -2.6%.
Screening CC(CC(=O)Nc1ccc(C(N)=O)cc1)c1ccccc1 (stereo not given) returned HPGD inh -7.7%.
For COC(=O)c1ccc2c(=O)n(CC3CCCO3)c(SCC(=O)Nc3ccccc3OC)nc2c1 (stereo not given) the results were HPGD inh -12.3%.
`CS(=O)(=O)N(CCc1ccccc1)CC(=O)Nc1ccc(OCc2ccccc2)cc1` gave HPGD inh -12.1%.
For Nc1ccc2nc3n(c(=O)c2c1)CCC3 the results were HPGD inh inconclusive.
Screening Cc1cc(C(=O)CSc2nnc(C3COc4ccccc4O3)n2C)c(C)n1-c1ccc(F)cc1 (stereo not given) returned HPGD inh 28.2µM*.

Six compounds picked at random from the list so far:
For COC(=O)c1ccc(OC)c(-c2c(OC)cc(OC)cc2OC)c1 the results were HPGD inh -9.8%.
For O=C(CSc1nn(-c2ccc(F)cc2)c(=S)s1)NC(=O)NCc1ccco1 the results were HPGD inh -20.9%.
Screening CC(CC(=O)Nc1ccc(C(N)=O)cc1)c1ccccc1 (stereo not given) returned HPGD inh -7.7%.
Screening Cc1cc(C(=O)CSc2nnc(C3COc4ccccc4O3)n2C)c(C)n1-c1ccc(F)cc1 (stereo not given) returned HPGD inh 28.2µM*.
COc1ccc2c(=O)c(C(=O)O)c(-c3ccc4c(c3)OCO4)n(C)c2c1 was read as HPGD inh inconclusive.
Cc1cnc(NC(=O)C2C(=O)c3ccccc3S(=O)(=O)N2C)s1 (stereo not given) was read as HPGD inh -29.0%.

Continued:
Screening COC(=O)c1ccccc1NC(=O)CN(C)S(=O)(=O)c1ccc(OC)c(C)c1 returned HPGD inh inconclusive.
For Cc1ccc(S(=O)(=O)Nc2cc(C(=O)N3CCOCC3)ccc2N2CCCCC2)cc1 the results were HPGD inh 0.1%.
Screening COc1nc(N(C)C)nc(-n2nnc(C(C)=O)c2C)n1 returned HPGD inh -4.2%.
Cc1nn(CC(=O)NNC(=S)Nc2ccccc2)c(C)c1[N+](=O)[O-] was read as HPGD inh -2.4%.
Screening O=C(NCCC1=CCCCC1)C1CCN(C(=O)c2ccc(Cl)cc2)CC1 returned HPGD inh 0.8%.
For COc1ccc(CN(CCC#N)C(=S)NC(=O)c2ccccc2)cc1 the results were HPGD inh -12.6%.
`CCOC(=O)CSc1nc2cc(C)cc(C)c2cc1C#N` gave HPGD inh -21.6%.
Screening O=[N+]([O-])c1ccc(OCC(O)CN2CCN(c3ccccc3F)CC2)cc1 (stereo not given) returned HPGD inh -5.7%.
Cc1cc2cc(CNC(=O)NC3CCCCC3)ccc2n1C was read as HPGD inh 28.2µM*.
CCOC(=O)N1CCN(C(=O)CN(C2CCCCC2)S(=O)(=O)c2ccc(C)cc2)CC1 was read as HPGD inh 1.3%.
Cc1cc(C)c2[nH]c(=O)c(C(c3nnnn3C3CCCC3)N3CCOCC3)cc2c1 (stereo not given) was read as HPGD inh -20.9%.
`CCCOc1ccc(/C=N/O)cc1` gave HPGD inh -13.1%.
`NS(=O)(=O)c1ccc(CCNC(=O)CCC2COc3ccccc3O2)cc1` (stereo not given) gave HPGD inh -9.5%.
`COc1ccc(OCCCC(=O)Nc2nncs2)cc1` gave HPGD inh -12.2%.
`CC(C)CCNC(=O)C(c1ccncc1)N(Cc1cccs1)C(=O)Cn1nnc(-c2ccc(F)cc2)n1` (stereo not given) gave HPGD inh -24.1%.
`CS(=O)(=O)N(CC(=O)Nc1ccccc1C(=O)N1CCOCC1)c1ccc2c(c1)OCO2` gave HPGD inh -6.8%.
Screening Cc1ccc(-c2nc(NCc3cccnc3)c3ccccc3n2)cc1 returned HPGD inh -6.5%.
N/C(Cc1ccc(Cl)cc1)=N\OC(=O)C1CCCCC1 was read as HPGD inh -11.8%.
For CC12C(=O)OC(=O)C1(C)C1CCC2O1 (stereo not given) the results were HPGD inh -15.3%&-7.9%.
For O=C(c1ccco1)N1CCN(c2nc3ccccc3n3nnnc23)CC1 the results were HPGD inh -28.3%.
For Nc1nc2n(n1)C(c1cccs1)CC(c1ccc(F)cc1)N2 (stereo not given) the results were HPGD inh -7.0%.
`O=C(NCCO)c1ccc(-n2c(=O)c(=O)[nH]c3ccccc32)cc1` gave HPGD inh -6.4%.
Screening N/C(=N\O)c1ccc(NC(=O)c2cccs2)cc1 returned HPGD inh inconclusive.
Screening COc1ccc(Nc2ncnc3c2cnn3Cc2ccccc2)cc1 returned HPGD inh 22.4µM*.
Screening C=C/C1=C/Cc2ccccc2[C@H](C[N+](=O)[O-])C(C(=O)OC)(C(=O)OC)C1 returned HPGD inh -16.5%.
Cc1cc[n+]2c3c(cccc13)CCC2 was read as HPGD inh inconclusive.
`C/C(=N/NC(=O)CNC(=O)Cc1ccccc1)c1ccco1` gave HPGD inh -11.6%.
Screening Cc1cc(SCC(=O)c2ccc3c(c2)OCO3)nc2ccccc12 returned HPGD inh -12.9%.
`O=C(O)c1ccc(NC(CSCc2ccccc2F)C(=O)O)c([N+](=O)[O-])c1` (stereo not given) gave HPGD inh -16.9%.
